S aureus helic – blocks Staphylococcus aureus DNA helicase | inhibition, %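 (tested at about 80 µM)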 | purified S. aureus helicase, fluorescence unwinding assay; about half of the hits fall short of the stated cut | AID 485395 | actives 0.05% (n = 120,000);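 active = both duplicates at 50% or more, or one of them with a favoured structure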;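 also: 0% = mean of negative control wells and 100% = mean of positive control wells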
MgrA-DNA mod – alters Staphylococcus aureus MgrA binding to DNA. fluorescence polarization. actives 0.13% (n = 84,000). inhibition, %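 (about 10 µg/mL by stock and volumes)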. AID 602314;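 active = above 50% in either of two replicates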;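 also: 0% = protein plus DNA without compound and 100% = DNA alone without protein; higher means less MgrA bound to DNA so lower polarization; one replicate is shown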
Starred values were filed as active, the others as inactive; . = not tested or not shown; & = joins results of further samples. The list is partial. The share of hits here may be higher or lower than overall.

SMILES | S aureus helic | MgrA-DNA mod
CC(=O)Nc1ccc(S(=O)(=O)NCc2cc(C)n(-c3ccc(F)cc3)c2C)cc1 | -15 | .
C=CCS(=O)(=O)c1nc2ccccc2s1 | 1 | 1.6
COc1ccc(/C=C/C(=O)Nc2noc3ccccc23)cc1OC | 14 | 0.5
CC1CC(C)CN(C(=O)c2cc3cccnc3n(Cc3ccccc3)c2=O)C1 (configuration not stated) | 4 | .
BrCCOC12CC3CC(CC(C3)C1)C2 | -17 | 0.9
OC(CNCc1ccc2c(c1)OCO2)COc1ccc(-c2csnn2)cc1 (configuration not stated) | . | 3.7
CCn1c2ccccc2c2cc(/C=N/n3cnnc3)ccc21 | -7 | -2.4
CC1CCN(c2c(N)cccc2Cl)CC1 | -1 | -1.2
CCCNS(=O)(=O)c1ccc(-c2cc(C(F)(F)F)no2)s1 | 1 | .
O=S(=O)(c1ccc(Cl)s1)N1CCN(C(c2ccccc2)c2ccccc2)CC1 | . | -3.8
C=CCN(CC=C)C(=S)Nc1ccc2c(C)cc(=O)oc2c1 | 12 | 3.8
Cc1nnc2sc(-c3cc4ccccc4o3)nn12 | -15 | .
c1cncc(CNc2c3c(nc4ccccc24)CCC3)c1 | 5 | -1.4
Cc1c(C)n(C(=O)CSc2ncccn2)c2ccccc12 | 0 | -0.7
N#CC1=C(N)C(C#N)(C#N)C(c2cccs2)C2CCCC=C12 (configuration not stated) | 0 | 3.4
COC(=O)C1=NNC(C(=O)c2ccco2)C1c1ccc(OC)cc1 (configuration not stated) | 7 | -3.3
O=C(CN1C(=O)C2CC=CCC2C1=O)NC1CCCCC1 (configuration not stated) | 7 | -0.6
COc1ccc(C(=O)N[C@H](C(=O)N2CCN(S(=O)(=O)c3ccc(Cl)cc3)CC2)C(C)C)cc1 | -6 | .
CCCn1c(C)cc(/C=C(\C#N)C(=O)Oc2c(C)ccc(C)c2C)c1C | -30 | .
CCSc1nnc(NC(=O)/C=C/c2ccc3c(c2)OCCO3)s1 | -12 | .
N=C1/C(=C\c2cn(CCOc3ccccc3Cl)c3ccccc23)C(=O)N=C2SC=NN12 | -36 | -0.8
CCOC(=O)c1ccc(N2C(=O)CC3(CCCC3)C2=O)cc1 | . | -0.6
COc1ccc(CC(=O)N2CC(C)OC(C)C2)cc1 (configuration not stated) | 15 | 2.6
c1ccc(N2CCN(c3cnc4ccccc4n3)CC2)cc1 | . | -0.5
COC(=O)COc1cc2oc(=O)cc(C)c2cc1Cl | 30 | .
O=C(C1CCN(S(=O)(=O)c2cnc[nH]2)CC1)N1CCn2c1nc1ccccc12 | 8 | 3.6
Cc1cc(C(=O)NCc2csc(-c3cccs3)n2)no1 | . | 0.8
O=C1/C(=C/c2ccccc2)Cc2ccccc21 | . | -5.9
Cc1onc(-c2c(Cl)cccc2Cl)c1N | . | -0.4
O=C(CN1C(=O)CSC1=O)NCc1ccccc1 | 8 | -0.8
CN(C)CC(=O)C12CC3CC(CC(C3)C1)C2 | -6 | .
CC1=CCC(C(=O)O)C(C(=O)O)C1 (configuration not stated) | -3 | 1.4
Cc1ccc(OCc2cc(C(N)=O)oc2C)cc1 | -3 | -0.7
O=C(NC1CCC(CC2CCC(NC(=O)c3cccnc3)CC2)CC1)c1cccnc1 (configuration not stated) | 3 | -2.2
Cc1cc(F)ccc1NC(=O)Cc1ccc(S(=O)(=O)N2CCCC2)s1 | -1 | .
O=C(CSc1cn(Cc2ccccc2Cl)c2ccccc12)N1CCCC1 | -10 | 0.5
Cc1nn(-c2ccccc2)c2ncc(C(=O)N3CCN(C)CC3)c(Cl)c12 | 5 | .
Cc1ccc(CN)n1C | 4 | .
CCOC(=O)C1=C(C)NC(SC)=NC1c1ccccc1 (configuration not stated) | -16 | .
Nn1c(SCC(=O)NC2CCCCC2)nnc1C(F)(F)F | -10 | .
Cc1ccc(C)c(OCC(=O)OCn2nnc3ccccc3c2=O)c1 | 3 | .
Cc1nn(-c2ccccc2)c(C)c1/C=N/n1cnnc1 | -15 | .
CCC(=O)c1ccc(N2CCN(C(=O)c3ccco3)CC2)c(F)c1 | 14 | 0.0
Cc1cccc(NC(=O)C2=CC(=O)C3C=CC=CC3O2)c1C (configuration not stated) | 10 | .
C=CCOC(=O)COc1ccc(Oc2ccccc2)cc1 | 10 | .
O=C(O)c1ccc(S(=O)(=O)NCc2ccco2)cc1 | -12 | .
CCS(=O)(=O)c1ccc2c(c1)N1CCS(=O)(=O)N=C1O2 | -10 | .
Cc1cc2c(NC3CCCC3)ncnc2s1 | -1 | -7.7
O=S(=O)(c1ccc2c(c1)CCO2)N1CCC2(CC1)OCCO2 | . | -0.9
COc1ncnc2oc(C)c(C(=O)Nc3cccc(Cl)c3)c12 | -6 | .
O=C1NC2(CCOc3ccccc32)C(=O)N1CC1NS(=O)(=O)N=C2CCCCCN21 (configuration not stated) | -4 | .
O=C(COc1ncnc2sc(-c3ccccc3)cc12)N1CCNC1=O | 1 | .
Cc1nc2ccc(Cl)cc2nc(C)/c1=N\O | 6 | .
N#Cc1ccc(C2N=C(c3ccccc3)NO2)cc1 (configuration not stated) | -6 | -1.2
Cc1csc2ccc(Cl)cc12 | . | -2.8
CN(C)S(=O)(=O)c1ccc(NC(=O)Nc2ccccc2)cc1 | 0 | -3.9
C[n+]1cn(CC(=O)Nc2ccccc2)c2ccccc21 | 12 | -1.4
O=C(c1ccc(C(F)(F)F)cc1)N1CCCCC1 | 17 | -0.4
O=C(NC1(C(=O)Nc2ccccc2)CCCCC1)c1ccc(-n2cnnn2)cc1 | 4 | .
N#CCn1c(=O)c2c(ncn2Cc2ccccc2)n(Cc2ccccc2)c1=O | -7 | .
(continued)
SMILES | S aureus helic | MgrA-DNA mod
NC(=O)c1cc2c(ccc3ccccc32)oc1=Nc1ccc(Br)cc1 | . | 0.2
CCNC(=O)Oc1noc2ccc(C)cc12 | -14 | .
CC(=O)Nc1ccc(S(=O)(=O)CCC(=O)O)cc1 | -5 | 0.5
COc1ccc(NC(=O)COc2ccc(Cl)c(C)c2)cn1 | 7 | .
COC(=O)C1=CN(C(C)C)C=C(C(=O)OC)C1c1ccc(OC)cc1 | 4 | .
C=CCc1cccc(C)c1OCCCN1CCC(C)CC1 | 9 | -2.5
N#CCOc1ccc(Cl)cc1 | . | 2.4
O=C(CCS(=O)(=O)c1cc(Br)cc2c1N(C(=O)C1CC1)CC2)N1CCCCC1 | 5 | .
CC(=O)N1CCc2cc(S(=O)(=O)N3CCc4ccccc4C3CN3C(=O)c4ccccc4C3=O)ccc21 (configuration not stated) | 18 | .
O=C1NCCCN1Cc1ccc(F)cc1Cl | -2 | 1.8
CC(=O)NC12CCC3CC(CC(C3)C1)C2 | 2 | .
COc1cc(NC(=O)C(Sc2nc(C)cc(C)c2C#N)c2ccccc2)c(OC)cc1Cl (configuration not stated) | . | 3.8
O=c1[nH]c2ccc(S(=O)(=O)Nc3ccc(O)cc3)cc2[nH]1 | -2 | -1.4
CC1(C)CC(=O)C(Sc2nnc(-c3ccc(O)cc3)n2CC2CCCO2)C(=O)C1 (configuration not stated) | 4 | -1.5
Cc1cc2c(o1)-c1c(oc3ccccc13)CCC2(C)c1ccccc1 (configuration not stated) | 7 | -0.7
O=C(COc1ccc(Cl)cc1)OCCOc1ccccc1F | 6 | -0.3
CC1NC(=O)C(C#N)=C(SCc2ccccc2)S1 (configuration not stated) | 6 | -0.7
CN(C)CCn1c(-c2ccccc2)cc(=S)c2c1CCCC2 | 7 | .
O=C1CC(c2ccccc2)SC(N2CCc3ccccc32)=N1 (configuration not stated) | -13 | .
CNC(=O)c1ccccc1Sc1ccc(Cl)cc1C(=O)O | . | -0.8
COc1cc(O)c(C(=O)Cc2cc3ccccc3o2)cc1C(C)C | 15 | .
O=C(c1ccc(S(=O)(=O)NCc2ccco2)cc1)N1CCN(c2ccc(F)cc2)CC1 | 4 | .
CCS(=O)(=O)N1CCc2cc(C(=O)COC(=O)c3ccc(NC(=O)CC#N)cc3)ccc21 | -8 | .
CCCCC/C=C\C/C=C\CCCCCCCC(=O)NCC(=O)O | . | 0.0
C=CCSc1nnc(Cn2cnc3ccccc32)n1C | -2 | -0.2
Oc1c(Cl)cc(Cl)cc1/C=N/NC(=S)NCC1CCCO1 (configuration not stated) | . | 5.8
CC(=O)NCCSc1c(C)[nH]c2ccccc12 | -16 | .
Cc1cc(C#N)c(C)n1CCCn1ccnc1 | -12 | .
CCN(CC)CC(=O)Nc1ccccc1-c1nc2ccccc2[nH]c1=O | 9 | .
Cc1c(C(=O)N(C)C)sc2nc(SCC(=O)NCc3ccco3)n(CCc3ccccc3)c(=O)c12 | 13 | .
NC(=O)c1nn(CC(=O)N2CCCSc3ccccc32)c(=O)c2ccccc12 | 6 | .
O=c1c2c3c(sc2ncn1CCc1ccccc1)CCCC3 | -1 | -1.1
COc1ccc(C2C3=C(CC(C)(C)CC3=O)Nc3c2c(=O)[nH]c(=O)n3Cc2ccccc2)cc1 (configuration not stated) | -22 | .
CNS(=O)(=O)c1cc(OC)ccc1OC | 3 | 0.2
CC(O)Cn1c(=N)n(C)c2ccccc21 (configuration not stated) | -2 | -1.8
O=C(Nc1cccc(-c2nn[nH]n2)c1)c1cccs1 | 6 | 1.4
COc1ccc(-c2nn(C)c3sc(C(=O)NCCCN4CCOCC4)cc23)cc1OC | 32 | .
CCOc1ccc2c(c1)c(=O)c1cccnc1n2Cc1ccccc1C | 10 | .
FC(F)(F)N(c1ccccc1)c1ccccc1 | 8 | -0.5
Cc1ccc(NC(=O)c2ccsc2)cc1NS(C)(=O)=O | . | -1.6
CC1CCN2C(c3ccc(Cl)cc3)=CSC2=N1 (configuration not stated) | 16 | .
COc1ccc(C(=O)c2oc3cc(OC)ccc3c2C)cc1 | 17 | .
Cc1nc(SCC(=O)N2CCSc3ccccc32)c(C#N)c(C)c1C | -13 | .
Cc1ccc2nc(NC(=O)c3ccco3)sc2c1 | -10&-3 | .
CO/C([O-])=N/c1c[n+](-c2ccc(Cl)cc2)no1 | 7 | 1.7
CC(=O)Nc1ccc(S(=O)(=O)N2CCCCC2C)cc1 (configuration not stated) | -1 | 1.2
COc1ccc(OC)c(S(=O)(=O)c2ccc(C)cc2)c1 | 4 | -2.3
CCc1nnc(NC(=O)c2ccc(S(=O)(=O)N3CCCCC3C)cc2)s1 (configuration not stated) | 3 | 1.1
CCOC(=O)CSc1nnc(-c2ccc(Br)cc2)n1-c1ccccc1 | . | -1.5
COc1ccc(-c2noc(CN3CCCC(C(=O)O)C3)n2)cc1OC (configuration not stated) | -20 | .
CN(C)/C=N/c1ncccc1OCc1ccc(Cl)c(Cl)c1 | . | 2.2
CCCCSc1nnc2sc3ccccc3n12 | -25 | .
CCC(C)Nc1nc(OC)nc(Oc2ccc(=O)[nH]n2)n1 (configuration not stated) | 9 | .
O=C(O)C(O)c1ccccc1Cl (configuration not stated) | . | -3.6
CC1Cc2ccccc2N1C(=O)CSc1ccc2c(c1)OCCO2 (configuration not stated) | -16 | .
COc1ccc(-c2n[nH]c3c2cnc2ccccc23)cc1 | 7 | .
CCSc1cc(C(F)(F)F)nc2cc(C(C)(C)C)nn12 | . | 2.2
CCC(C)NC(=O)Cn1cc2c(n1)CCC(C)C2 (configuration not stated) | 37 | .
Cc1ccc2nc(C3CCCCC3)[nH]c2c1 | -10 | 0.3
COc1cc(-c2cc(C#N)on2)cc(OC)c1OC | 12 | 3.4
Further results.
SMILES | S aureus helic | MgrA-DNA mod
CCc1ccccc1NC(=O)CNCc1ccccc1 | 8 | 3.0
CCOC(=O)c1nn(-c2ccccc2)c(=O)cc1OCC(=O)Nc1ccc2c(c1)OCCO2 | 17 | .
Cc1ccc(-n2nnnc2-c2nc3ccccc3s2)cc1 | -21 | .
Cc1c(C(=O)O)oc2ccc3c(c12)C(=O)CC1(CCCC1)O3 | 0 | -0.4
COC(=O)c1ccc(C(=O)Nc2ccc3nc(CN4CCCCC4)[nH]c3c2)cc1 | 12 | .
CN(CC(O)COCc1cccs1)C1CCCCC1 (configuration not stated) | 11 | 3.4
Cc1ccccc1-n1c(N)cc(=O)[nH]c1=O | . | 0.6
NC(=O)c1cc(Cl)ccc1I | . | -1.5
O=C(O)c1ccc(C2SCC(=O)N2NS(=O)(=O)c2ccc(F)cc2)cc1 (configuration not stated) | 1 | -0.2
COC(=O)c1c(C)[nH]c(C2=NNC(=NC3CCCCC3)SC2C)c1C (configuration not stated) | 20 | .
O=C(COc1ccc(F)cc1F)n1cnc2ccccc21 | 2 | -0.3
Cc1ccc(-n2c(C)cc(C(=O)OCc3ccc(C#N)cc3)c2C)cc1 | 5 | .

Seven of the compounds above, with values under each structure:
Order of results: S aureus helic	MgrA-DNA mod
CCOC(=O)c1nn(-c2ccccc2)c(=O)cc1OCC(=O)Nc1ccc2c(c1)OCCO2
    17	.
Cc1ccc(-n2nnnc2-c2nc3ccccc3s2)cc1
    -21	.
Cc1c(C(=O)O)oc2ccc3c(c12)C(=O)CC1(CCCC1)O3
    0	-0.4
COC(=O)c1ccc(C(=O)Nc2ccc3nc(CN4CCCCC4)[nH]c3c2)cc1
    12	.
CN(CC(O)COCc1cccs1)C1CCCCC1 (configuration not stated)
    11	3.4
Cc1ccccc1-n1c(N)cc(=O)[nH]c1=O
    .	0.6
NC(=O)c1cc(Cl)ccc1I
    .	-1.5

Shown with values under each structure: 4 of the compounds above
Values run as follows: S aureus helic	MgrA-DNA mod
Cc1c(C(=O)O)oc2ccc3c(c12)C(=O)CC1(CCCC1)O3
→ 0	-0.4
NC(=O)c1cc(Cl)ccc1I
→ .	-1.5
CCc1ccccc1NC(=O)CNCc1ccccc1
→ 8	3.0
CN(CC(O)COCc1cccs1)C1CCCCC1 (configuration not stated)
→ 11	3.4

Screening data: PubChem BioAssay, ICCB-Longwood Screening Facility, Harvard Medical School
